Screening data as filed in PubChem BioAssay.
RE007 growth inh: less growth of the S. pombe RE007 Vpr strain | S. pombe RE007 Vpr strain, BacTiter-Glo ATP luminescence, 24 h; control for the full effect not named in the record | Potency, µM (doses to about 92.2 µM), for inactives: top-dose activity change, negative = less growth | hit rate 0.21% among 360,000; active = well fitted falling curve with a large enough effect; inconclusive = small, poorly fitted or top-dose-only effect; inactive = no such curve, though single readings can be large or run the other way;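 further: nearly all actives have a fitted effect of over 50% in size; the assay follows cell death caused by Vpr and the record does not say whether a fall means rescue or toxicity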
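Fission yeast RE007 carrying one integrated HIV-1 vpr copy, seeded at OD 0.01 in PMG+AL medium with 23 nL pinned compound. Grown 24 h at 30 degrees; viability read by BacTiter-Glo luminescence after 5 min.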
2A StopGo: lowers the luciferase signal of an FMDV 2A StopGo reporter; AID 1159524; hit rate 1.2% among 410,000; human cells with a luciferase reporter of 2A StopGo recoding; control for the full effect not named in the record; Potency, µM (doses to about 57.9 µM), inactives show at the highest dose signal change, negative = less light; active = well fitted falling curve with a large enough effect; inconclusive = small, poorly fitted or top-dose-only effect; inactive = no such curve, though single readings can be large or run the other way; tested in HEK293T cells; further: nearly all actives have a fitted effect of over 45% in size; luciferase light after 4 h
An asterisk follows results filed as active; ? = inconclusive; [ ] = remark or other dose. On the % scale 0 is the no-effect control and ±100 the full control effect; potency means the concentration at half of the fitted maximal effect. This is a subset; the hit share may differ from the screen's.

Order of values – 2A StopGo | RE007 growth inh
- COc1ccc(CC(=O)OCC(=O)Nc2ccc3[nH]c(=O)[nH]c3c2)cc1OC
→ -8% | 0%
- CC(C)NC(=O)c1cc(C2CCCCN2S(=O)(=O)c2cccs2)on1 (configuration not stated)
→ -13% | 6%
- Cn1c(N)c(S(=O)(=O)NCc2ccccc2)c(=O)n(C)c1=O
→ -22% | -3%
- O=C(/C=C/c1ccccc1)Nc1cccc(C(=O)NC2CC2)c1
→ 24% | -4%
- O=C(Cc1cccc(NC(=O)C2CCCN(C(=O)C3CC3)C2)c1)Nc1ccc(C(=O)N2CCCCC2)cc1 (configuration not stated)
→ -15% | -10%
- CC(C)(C)OC(=O)NCCCCCNC(=O)c1[nH]cnc1C(=O)Nc1cc(Br)ccc1F
→ -29% | 5%
- CN(CC(=O)NCC1CCCO1)S(=O)(=O)c1ccc2ccccc2c1 (configuration not stated)
→ -13% | -2%
- CN(C)c1ccc(-c2ccnc3c2CC(C)(C(=O)NCC2CC2)O3)cc1 (configuration not stated)
→ 0% | 9%
- CC(=O)Nc1cc(-c2ccc(CO)cc2)cn2c(-c3ccc(F)c(Cl)c3)cnc12
→ -18% | 5%[18.4 µM]
- CC(C)NC(=O)N(C)C[C@@H]1OCc2cnnn2CCCC(=O)N([C@@H](C)CO)C[C@H]1C
→ -21% | 21%
- CC(C)C[C@@H]1CC2=C(C(=O)OC(C)(C)O2)[C@H](CCc2ccccc2)O1
→ -25% | -10%
- CC(=O)Nc1cc(-c2ccc(F)cc2)cn2c(-c3ccc(S(C)(=O)=O)cc3)cnc12
→ -21% | 4%[18.4 µM]
- C#CCN(C[C@@H]1[C@@H](OC(=O)NCc2ccc(OC)c(OC)c2)[C@@H](OC(=O)NCc2ccc(OC)c(OC)c2)Cn2c(=O)ccc(=O)n21)S(=O)(=O)c1ccc(C)cc1
→ ? | -14%
- CN(C)S(=O)(=O)c1cccc(NC(=O)C2CCCN(C(=O)c3ccc(Cl)cc3)C2)c1 (configuration not stated)
→ ? | 13%
- COc1ccc(S(=O)(=O)N2CCCCC2c2cc(C(=O)Nc3ccc(OC)cc3C)no2)cc1 (configuration not stated)
→ ? | 15%
- O=C(CCc1nnc(Cc2c[nH]c3ccccc23)o1)NCCC1CCCCO1 (configuration not stated)
→ 26% | 2%
- C#CCN1CCc2onc(-c3ccccc3OC)c2C1=O
→ -6% | 7%
- COC(=O)c1cccc(CC2(C)C(=O)Nc3cc(-c4ccccc4Cl)ccc32)c1 (configuration not stated)
→ -1% | 7%
- CN(Cc1ccccc1)C(=O)CN1C(=O)NC2(CCCc3sccc32)C1=O (configuration not stated)
→ -10% | 4%
- COc1ccc(C(O)c2nc(-c3ccncc3)cs2)cc1 (configuration not stated)
→ ? | 0%[18.4 µM]
- Nc1cccc(-c2c[nH]c3ncc(-c4cccnc4)cc23)c1
→ -13% | 12%
- COc1cccc(S(=O)(=O)N(C)C[C@H]2Oc3cc(Br)ccc3S(=O)(=O)N([C@@H](C)CO)C[C@H]2C)c1
→ 9% | 18%
- OC(c1cccnc1)c1nc(-c2cccc(F)c2)cs1 (configuration not stated)
→ -17% | -7%
- Cc1ccc(S(=O)(=O)N2CCOCC2)cc1NC(=O)c1ccncc1
→ -18% | 3%
- O=C(c1ccccc1)C1CC1c1ccccc1 (configuration not stated)
→ 23% | 18µM*
- COc1ccc(OC)c2sc(NC(=O)CCS(=O)(=O)c3ccccc3)nc12
→ -10% | 11%
- CNC[C@H]1OCc2cnnn2CCCC(=O)N([C@H](C)CO)C[C@@H]1C
→ 2% | -1%
- CCN(C(=O)COC(=O)c1cc(=O)[nH]c2ccccc12)c1c(N)n(Cc2ccccc2)c(=O)[nH]c1=O
→ -12% | -4%
- COc1ccc(Cn2cc(CN3CC(N4CCN(Cc5ccccc5F)CC4)CS3(=O)=O)nn2)cc1 (configuration not stated)
→ -5% | -8%
- CC1(C(=O)NS(=O)(=O)c2cccc(F)c2)CCN1C(=O)CCC1CCCC1 (configuration not stated)
→ 8% | 12%
- Cc1oc(-c2cccs2)cc1C(=O)N1CCC(C)(C(=O)NS(=O)(=O)C2CC2)C1 (configuration not stated)
→ 4% | -5%
- CCOC(=O)/C=C/C(=O)Nc1ccc(S(=O)(=O)Nc2cc(OC)nc(OC)n2)cc1
→ -3% | -3%
- Cc1cccc(N(CC(=O)N/N=C/c2ccc(C(=O)O)cc2)S(=O)(=O)c2ccccc2)c1C
→ -12% | 29%
- CCC(C)CN1C(=O)CSCC1(C)C(=O)Nc1c(C)cccc1C (configuration not stated)
→ -12% | 0%
- CCc1cc(C(=O)N2CCCc3ccccc32)sc1C
→ 20% | -16%
- COC(=O)[C@@H]1C[C@]2(Br)c3ccccc3N(S(=O)(=O)c3ccccc3)[C@@H]2N1C(=O)OC
→ -15% | 4%
- CC(C)C[C@@H]1Cc2[nH][nH]c(=O)c2[C@H](CCc2ccccc2)O1
→ -21% | 2%
- Cc1ccc2nc(-c3cccc(Br)c3)c(Cc3ccccc3)n2c1
→ 18% | ?
- Nc1cccc2c1C(=O)N(c1ccccc1)C2=O
→ 18% | -13%
- CCNC(=O)N(C)c1c(CC)nc2ccc(C(=O)N3CCN(C(=O)c4ccco4)CC3)cn12
→ 0% | -15%
- COC(=O)C1=CN(c2ccc(F)cc2)C(N)=C(C#N)C1c1cccc(OC)c1OC (configuration not stated)
→ -13% | 4%
- CCCc1c(C(=O)N/N=C(\C)c2ccc3c(c2)OCO3)nnn1-c1nonc1N
→ -8% | -4%
- CCCNC(=O)C1(CC2CC(c3ccccc3)=NO2)CCN(C(=O)c2cc(OCC)c(OCC)c(OCC)c2)CC1 (configuration not stated)
→ -19% | -5%
- CCC(=O)N1CCCC(C)(C(=O)Nc2ccc3oc(CC)nc3c2)C1 (configuration not stated)
→ 14% | -1%
- O=C1c2ccccc2S(=O)(=O)c2cc(C(=O)N3CCN(c4ccc(Cl)cn4)CC3)ccc21
→ 0% | 2%
- CCCNC(=O)C[C@@H]1C[C@H]2c3cc(NC(=O)c4ccc5c(c4)OCO5)ccc3O[C@H]2[C@@H](CO)O1
→ -11% | -5%
- COc1ccccc1CNC(=O)C[C@@H]1C[C@H]2c3cc(N(C)C)ccc3O[C@H]2[C@H](CO)O1
→ -18% | -2%
- O=C(Nc1cccc(Cl)c1)c1csc([C@@H]2O[C@H](CO)[C@H](O)[C@H](O)[C@H]2O)n1
→ -13% | 2%
- COc1ccc(-c2nc3ccc(Cl)cn3c2Cc2ccc(C)cc2)cc1OC
→ 34%[activator] | 0%
- O=C1[C@H](Cc2ccccc2)NCC=CC[C@@H](c2ccco2)N1Cc1ccccc1
→ -18% | -2%
- CS(=O)(=O)Nc1ccc(-c2cncc3nccn23)cc1
→ -17% | 2%
- Cc1ccc(S(=O)(=O)N2CCC(=O)N([C@H](COCc3cccc(Cl)c3)Cc3ccccc3)CC2)cc1
→ -16% | -11%
- CN(C(=O)c1cccc(NC(=O)Cc2ccc(NC(=O)C3CCCN(C(=O)CCc4ccccc4)C3)cc2)c1)C1CCC1 (configuration not stated)
→ 18µM* | -1%
- O=C(COC(=O)/C=C/c1ccc(Cl)cc1)NC1CCS(=O)(=O)C1 (configuration not stated)
→ 0% | -2%
- OC(c1ccc2c(c1)OCO2)c1ncc(-c2ccccc2)[nH]1 (configuration not stated)
→ 60%[activator] | ?
- CCCC(=O)N1CCC1(C)C(=O)Nc1cc(-c2ccccc2)nn1C (configuration not stated)
→ 34%[activator] | -17%
- NC(=O)CN1C(=O)C2C3CCC(C3)C2C1=O (configuration not stated)
→ 18% | 16%
- C[C@H](CO)N1C[C@H](C)[C@@H](CN(C)C(=O)Nc2cccc(F)c2)Oc2ncc(Br)cc2C1=O
→ 95%[activator] | -6%
- COc1ccc(N2CCN(C(=O)COC(=O)[C@@H](NC(=O)c3c(F)cccc3F)C(C)C)CC2)cc1
→ -17% | 1%
- O=C(CCN1CC=C(c2ccccc2)CC1)NCc1ccccc1
→ -16% | -22%

Nothing new here: 3 of the compounds above.
Order of values – 2A StopGo | RE007 growth inh
- C[C@H](CO)N1C[C@H](C)[C@@H](CN(C)C(=O)Nc2cccc(F)c2)Oc2ncc(Br)cc2C1=O
→ 95%[activator] | -6%
- COc1ccc(N2CCN(C(=O)COC(=O)[C@@H](NC(=O)c3c(F)cccc3F)C(C)C)CC2)cc1
→ -17% | 1%
- O=C(CCN1CC=C(c2ccccc2)CC1)NCc1ccccc1
→ -16% | -22%

(further entries)
Order of values – 2A StopGo | RE007 growth inh
- COc1cccc(NC(=O)Nc2nnc(COCCO)s2)c1
→ 11% | 13%[18.4 µM]
- O=C(COc1ccc2ccc(=O)oc2c1)NCCN1CCOCC1
→ -12% | 1%
- Oc1ccc(Br)c(CN2CCN(c3ncc(Cc4ccccc4)cn3)CC2)c1
→ -19% | ?
- NC(CSCc1ccccc1)C(=O)Nc1ccc([N+](=O)[O-])cc1 (configuration not stated)
→ -3% | -16%
- CCc1nc2c(OCC(=O)N3CCOCC3)cccn2c1N(C=O)Cc1ccccc1
→ -14% | -11%
- C[C@H]1CCC[C@]2(O[C@H](CCO)C[C@H](O)[C@H]2O)O1
→ -23% | -1%
- CCN(CC)CCCNC(=O)CNC(=O)c1nn(-c2ccc(OC)cc2OC)c(=O)c2ccccc12
→ -25% | 10%
- C=C1[C@H]2C[C@H]3[C@H]4N5C[C@]6(C)CCC[C@]47[C@H]([C@H]2O)[C@]3(C[C@]5(O)[C@H]67)[C@@H]1O
→ -5% | 7%
- COc1ccccc1-c1cnc(C(O)c2ccc(SC)cc2)[nH]1 (configuration not stated)
→ -10% | -12%
- c1cc2c(cc1-c1ccc3c(c1)OCO3)CNCc1cnnn1-2
→ 33%[activator] | 8%
- CCc1nc2ccc(C(=O)N(C)Cc3ccccc3)cn2c1N(CC)Cc1cccc(Br)c1
→ -23% | -4%
- Cc1ccccc1S(=O)(=O)N(C)C[C@H]1OCc2cnnn2CCCC(=O)N([C@@H](C)CO)C[C@H]1C
→ -23% | -4%
- Nc1ncnc2c1ncn2[C@@H]1O[C@H](C(=O)N[C@H]2c3ccccc3C[C@H]2OC=O)[C@@H](O)[C@H]1O
→ -24% | 7%
- O=C(NCc1cccnc1)c1cc(C2CCCN(C(=O)c3cccs3)C2)on1 (configuration not stated)
→ -19% | 0%
- CN(C(=O)COc1ccccc1)c1ccc([N+](=O)[O-])cc1
→ -20% | -21%
- COC(=O)C1CC2=C(CCCC2=O)NC1=O (configuration not stated)
→ -16% | 11%
- COc1cc(CNc2ncnc3c2ncn3[C@H]2CN(Cc3cccc(C(F)(F)F)c3)C[C@@H](CO)O2)cc(OC)c1OC
→ ? | 2%
- CCOC(=O)C1=C[C@@H](CC)N(S(=O)(=O)c2ccc([N+](=O)[O-])cc2)[C@H]1c1ccccc1
→ ? | 1%
- CC(O)(c1cccnc1)c1nc(-c2cccc(F)c2)cs1 (configuration not stated)
→ -21% | -2%[18.4 µM]
- COc1ccc(CNS(=O)(=O)CCNCCc2ccccc2)cc1
→ 8% | 5%
- O=C(COC(=O)C1=COCCO1)NCc1ccc(Cl)cc1Cl
→ -10% | 8%
- COCCNC(=S)N1CCC(C(=O)c2ccc(F)cc2)CC1
→ 5% | 1%
- CC(N)c1csc(Nc2ccc(C(=O)NCCCO)cn2)n1 (configuration not stated)
→ -16% | -7%
- CC(C)N(C)c1ncnc2c1ncn2[C@H]1CN(Cc2ccc(Cl)cc2)C[C@@H](CO)O1
→ -18% | 14%
- CCNC(=O)C1(C)CCCN1C(=O)c1cc(OC)c(OC)c(OC)c1 (configuration not stated)
→ -6% | 8%[18.4 µM]
- COc1ccc(CN2C[C@@H](CO)O[C@@H](n3cnc4c(N5CCN(CCO)CC5)ncnc43)C2)cc1
→ -21% | -20%
- C[C@@H]1CN([C@H](C)CO)C(=O)c2cc(Br)cnc2O[C@H]1CN(C)C(=O)Cc1ccccc1
→ -13% | -13%
- N#CCc1c(C#N)c(N)nc(N2CCCC2)c1C#N
→ -15% | -5%
- CC(=O)NC(c1ccccc1)c1nc(-c2ccc(C)c(C)c2)cs1 (configuration not stated)
→ -13% | 6%[18.4 µM]
- CCc1ccc(NC(=O)c2ccc3c(c2)CCN3S(C)(=O)=O)cc1
→ -7% | 9%

Structural class: those above with a cyano group (2)
Order of values – 2A StopGo | RE007 growth inh
- COC(=O)C1=CN(c2ccc(F)cc2)C(N)=C(C#N)C1c1cccc(OC)c1OC (configuration not stated)
→ -13% | 4%
- N#CCc1c(C#N)c(N)nc(N2CCCC2)c1C#N
→ -15% | -5%

Following part
Order of values – 2A StopGo | RE007 growth inh
- COc1ccc(C(=O)C[C@@H]2OC[C@H](Cc3ccccc3)N2S(=O)(=O)c2ccc(C)cc2)cc1OC
→ -9% | 2%
- O=C(NCC(O)c1nc2ccccc2[nH]1)c1ccc(Br)cc1 (configuration not stated)
→ -15% | -16%
- CC(=O)Nc1cc(-c2cccc(C(=O)N(C)C)c2)cn2c(-c3cccc(C(=O)N(C)C)c3)cnc12
→ -24% | 13%
- CC(C)C[C@H]1CNC(=S)N1CC1CCN(CCCC2CCCCC2)CC1
→ ? | -23%
- COc1cc(S(=O)(=O)n2ccc(C)n2)c(C)cc1C
→ -7% | -3%
- Cc1ccc(S(=O)(=O)N2C[C@]3(O)C[C@@H]4C(=O)N(c5ccccc5)C(=O)[C@@H]4C[C@]3(OC(=O)Nc3cccs3)C2)cc1
→ -17% | -12%
- C[C@H]1CCCCO[C@@H](CN(C)S(=O)(=O)c2ccc(Cl)cc2)[C@@H](C)CN([C@@H](C)CO)C(=O)c2cc(NS(=O)(=O)c3ccccc3)ccc2O1
→ -17% | -6%
